Menin-MLL FL inh = menin-MLL binding inhibition, fluorescein peptide; Fluorescence polarization, fluorescein-MLL peptide displacement from menin; FP activity change, % at 61.4 µM; 290,000 tested, under 10 active; AID 1766; inconclusive = falling polarisation curve, or a change in total fluorescence; inactive = total fluorescence flat and polarisation flat or rising; no compound was filed as active; the % refers to the polarisation; negative = inhibition;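 note: % of control where 0% means no effect; inhibitors lower the polarisation; unlabelled MLL peptide was the positive control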
gsp antagonist = gsp mutant antagonism; AID 624288; Potency, µM (titrated, usually from 76.9 µM), without a hit: at the highest dose activity change, negative = inhibition, most hits filed as inhibitors; 340,000 compounds, 0.4% hits; gsp-mutant cells, cAMP HTRF, 30 min; control for the full effect not named in the record; active = falling curve of any shape with a large fitted effect; inconclusive = falling curve, mostly with a smaller effect; inactive = flat or rising curve; cell line not stated here;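 note: intracellular cAMP measured with PDE inhibitor Ro 20-1724 present during compound exposure; potency is the fitted concentration of half-maximal effect; % is set by controls: 0 for no effect and ±100 for the full control effect; nearly all actives have a fitted effect of over 65% in size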
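Measurement of cellular cAMP by homogeneous time-resolved fluorescence following a 30 min compound exposure at 37C. The PDE inhibitor […] was present throughout; the assay buffer was DPBS with 0.05% BSA and 0.005% Tween 20.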
TRPML1 agonist = human mucolipin-1 channel agonism. Q9GZU1. activation, % (no concentration beside the values). 410,000 compounds, 0.12% hits. AID 624414. TRPML1-expressing cells, Ca2+ dye fluorescence, FDSS; host cell line not named in the record; reference of the full effect not given here; in the data active = activation above about 50%; inconclusive = about 30% to 50%; inactive = below about 30%; note: 0% is about no effect; the text of the record puts the active cut at 80%
Target sequence (Q9GZU1 whole entry, looked up): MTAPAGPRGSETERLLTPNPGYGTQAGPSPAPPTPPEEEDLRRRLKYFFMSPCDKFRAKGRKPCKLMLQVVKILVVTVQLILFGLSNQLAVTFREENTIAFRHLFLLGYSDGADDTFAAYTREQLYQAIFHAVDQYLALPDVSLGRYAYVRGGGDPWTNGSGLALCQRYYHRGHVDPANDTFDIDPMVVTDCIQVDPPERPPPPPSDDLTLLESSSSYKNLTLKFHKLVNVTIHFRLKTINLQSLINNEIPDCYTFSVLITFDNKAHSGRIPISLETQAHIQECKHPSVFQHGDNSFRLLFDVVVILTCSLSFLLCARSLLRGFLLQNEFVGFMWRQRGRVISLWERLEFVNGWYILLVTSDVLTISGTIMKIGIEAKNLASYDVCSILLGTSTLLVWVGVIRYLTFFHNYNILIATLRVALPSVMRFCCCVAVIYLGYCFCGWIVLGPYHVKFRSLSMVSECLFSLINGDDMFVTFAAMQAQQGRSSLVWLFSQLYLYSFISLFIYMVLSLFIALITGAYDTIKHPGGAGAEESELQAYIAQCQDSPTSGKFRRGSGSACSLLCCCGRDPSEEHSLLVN
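In this qHTS format, compounds were pin-transferred onto Ca8-dye-loaded TRPML1-DL cells induced with Tet overnight, and intracellular Ca2+ fluorescence was recorded kinetically for 110 s after a 10 s baseline. A subsequent 4uM final 54-4 (EC80) addition followed by a second 110 s read served as the antagonist phase.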
TRPML1 inh = human mucolipin-1 channel inhibition. 390,000 compounds, 0.02% hits. activity change, negative = inhibition, % (test concentration not listed). TRPML1-inducible cells, Ca2+ dye fluorescence, FDSS; active compounds read low; inhibition of EC80 agonist-evoked calcium signal. Q9GZU1. AID 624415; in the data active means activity change below about -50%; inconclusive means about -30% to -50%; inactive means above about -30%;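 note: stimulus is agonist 54-4 at its EC80 concentration; % is set by controls: 0 for no effect and ±100 for the full control effect; compound concentration not given in the record; the text of the record puts the active cut at -80%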
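TRPML1-DL cells, Tet-induced overnight (~16 h, 37 °C) at 1,500 cells/well, were loaded with Ca8 no-wash dye plus quencher for 45-90 min at room temperature. Compounds were pinned during FDSS kinetic reading; agonist 54-4 at EC80 (4 uM final) then added.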
ClpP mod = qHTS Assay for Activators of ClpP. ATP-dependent Clp protease proteolytic subunit (Bacillus subtilis (strain 168)), P80244. purified B. subtilis ClpP, FRET peptide cleavage, 20 min. Potency, µM (top dose mostly 57.5 µM), for inactives: top-dose activity change, negative = active. 340,000 compounds, 1.9% hits; active = well fitted falling curve with a large enough effect; inconclusive = small, poorly fitted or top-dose-only effect; inactive = no such curve, though single readings can be large or run the other way; note: potency is the fitted concentration of half-maximal effect; the source files actives as falling curves though it sought activators and does not explain the sign; nearly all actives have a fitted effect of over 65% in size; many hits overshoot -100%
Target sequence (P80244 whole entry, looked up): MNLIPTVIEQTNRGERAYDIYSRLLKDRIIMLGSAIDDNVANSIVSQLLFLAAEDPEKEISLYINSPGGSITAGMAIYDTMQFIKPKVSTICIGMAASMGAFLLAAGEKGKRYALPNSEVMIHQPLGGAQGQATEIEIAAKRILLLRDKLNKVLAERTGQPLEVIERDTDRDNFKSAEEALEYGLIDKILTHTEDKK
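FRET quenching reversal measured ClpP activation: 10 microg/mL B. subtilis ClpP at pH 8 with the FRET-FV decapeptide, read at 430 nm after 320 nm excitation. The 20-min minus 0-min signal was scaled between DMSO/no-enzyme wells and ADEP (5.8 microM final).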
gsp agonist = activates gsp, the McCune-Albright syndrome mutation; 340,000 compounds, 0.13% hits; gsp mutant cells, cAMP HTRF, 30 min; control for the full effect not named in the record; Potency, µM (highest dose often 76.9 µM), without a hit: top-dose activation (cAMP increase), hits mostly activators; AID 624287; active = well fitted activation curve with a large enough effect; inconclusive = small, poorly fitted or top-dose-only effect, or another doubt; inactive = no such curve, though single readings can be large or run the other way; cell line not stated here;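 note: phosphodiesterase inhibitor Ro 20-1724 added with compounds to block cAMP breakdown; potency is the fitted concentration of half-maximal effect; nearly all actives have a fitted effect of over 60% in size; about a fifth of the inactives were tested at one dose only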
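Cells stably selected in G418 were plated at 2000/well, grown 16-24 hr, then given compounds in DMSO with the PDE inhibitor […] (300 uM solution added) for 30 min at 37C; cAMP was read by HTRF.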
Active calls of the source: *; u = inconclusive; x = no result given; [ ] = another dose, or the depositor's remark.

SMILES | Menin-MLL FL inh | gsp antagonist | TRPML1 agonist | TRPML1 inh | ClpP mod | gsp agonist
CCCCCn1c(SCC(=O)OC)nc2c1c(=O)[nH]c(=O)n2C | 0.9 | -5% | 0.0 | 3 | -2.0% | -3%
Cc1ccc(N2C(=O)C3C(C2=O)C2C=CC3C23CC3)c([N+](=O)[O-])c1 (centres undefined) | 1.9 | 3% | 2.7 | -15 | x | -1%[15.4 µM]
CC(OC(=O)c1ccc(Cl)c([N+](=O)[O-])c1)C(=O)N1CCN(Cc2ccccc2)CC1 (centres undefined) | x | u | -0.9 | 12 | 1.3% | -1%
Cc1ccccc1CSc1nnc(NC(=O)Cc2cccs2)s1 | 2.3 | 7% | 1.2 | 3 | 188% | -4%[15.4 µM]
Cc1oc2ccc(OCc3c(F)cccc3Cl)cc2c1C(=O)O | 0.2 | -21% | -0.4 | 3 | -5.7% | 5%
CC(=O)N1N=C(c2cccs2)CC1c1cc2cc(C)ccc2nc1Cl (centres undefined) | 2.4 | 50µM* | 1.8 | -17 | 0.8% | -37%[inhibitor]
COc1ccc(C(=O)/C(C)=N/O)cc1OC | 4.1 | 2% | -0.6 | 2 | -6.5% | 24%
CCCn1cc(SCC(=O)NC2CCCC2)c2ccccc21 | 0.4 | -2% | 1.3 | -6 | -6.6% | u
Cc1nc2scc(C)n2c(=O)c1S(=O)(=O)N1CCN(c2ccccc2F)CC1 | 0.0 | 11% | 0.4 | 8 | -12% | u
Cc1cc2nc(SC(C)C(=O)O)[nH]c2cc1C (centres undefined) | -0.1 | 11% | -0.4 | 0 | -1.6% | 3%

6 compounds already listed, arranged by SMILES length, low to high:
SMILES | Menin-MLL FL inh | gsp antagonist | TRPML1 agonist | TRPML1 inh | ClpP mod | gsp agonist
COc1ccc(C(=O)/C(C)=N/O)cc1OC | 4.1 | 2% | -0.6 | 2 | -6.5% | 24%
CCCn1cc(SCC(=O)NC2CCCC2)c2ccccc21 | 0.4 | -2% | 1.3 | -6 | -6.6% | u
Cc1ccccc1CSc1nnc(NC(=O)Cc2cccs2)s1 | 2.3 | 7% | 1.2 | 3 | 188% | -4%[15.4 µM]
CC(=O)N1N=C(c2cccs2)CC1c1cc2cc(C)ccc2nc1Cl (centres undefined) | 2.4 | 50µM* | 1.8 | -17 | 0.8% | -37%[inhibitor]
Cc1ccc(N2C(=O)C3C(C2=O)C2C=CC3C23CC3)c([N+](=O)[O-])c1 (centres undefined) | 1.9 | 3% | 2.7 | -15 | x | -1%[15.4 µM]
CC(OC(=O)c1ccc(Cl)c([N+](=O)[O-])c1)C(=O)N1CCN(Cc2ccccc2)CC1 (centres undefined) | x | u | -0.9 | 12 | 1.3% | -1%

Carrying on.
SMILES | Menin-MLL FL inh | gsp antagonist | TRPML1 agonist | TRPML1 inh | ClpP mod | gsp agonist
CC(C(=O)Nc1ccc(C(=O)O)c(O)c1)N1C(=O)/C(=C\c2ccco2)SC1=S (centres undefined) | x | -1% | 0.7 | 2 | 1.1% | -7%
COC(=O)C1C(=O)c2c([nH]c(C(=O)OC3CCCC3)c2C)CC1C (centres undefined) | 1.8 | -3% | 1.0 | 10 | -14% | -6%
O=C(c1ccccc1)N1CCN=C1c1ccccc1 | 0.0 | 14% | 0.9 | 11 | 1.0% | -20%
Cc1ccc(NC(=O)CCCn2c(=O)c3cccn3c3ccccc32)c(Cl)c1 | x | x | 2.0 | 9 | -11% | x
COc1ccc(Nc2nc(C(=O)N3CCc4ccccc4C3)cs2)cc1 | 3.4 | -20% | 1.2 | 5 | x | 25%
Cc1cc(C)n2c(SCC(=O)NCc3ccc4c(c3)OCO4)nnc2n1 | 2.3 | 2% | -0.5 | 23 | -1.6% | 16%
COC(=O)c1cc(NC(=O)Cn2nc(-c3ccccc3)c3c(c2=O)CCCC3)cc(C(=O)OC)c1 | x | x | 1.2 | 12 | -6.6% | x
Cc1ccc(CN(C(=O)COc2ccc(Cl)cc2C)C2CCS(=O)(=O)C2)o1 (centres undefined) | x | x | 0.4 | -7 | 0.1% | x
O=C(O)c1ccc(N2CCCS2(=O)=O)cc1 | 0.3 | 10% | -0.1 | 5 | x | -25%[15.4 µM]
NC1=NC[C@H](c2ccccc2)N1CCCCC1CCCCC1 | 0.0 | 10% | -0.4 | -8 | 1.2% | -48%[inhibitor]
Cc1ccc(CCNC(=O)C2CCN(c3nnc(C)c4c(C)n(-c5ccccc5)nc34)CC2)cc1 | x | x | 1.4 | 42 | u | x
CC(C)c1ccc(NC(=O)C2CCN(S(=O)(=O)c3ccc4c(c3)NC(=O)CO4)CC2)cc1 | x | u | 1.0 | 1 | 1.1% | -12%
COc1ccc(CCNCc2ccc3c(c2)n(C)c(=O)n3C)cc1OC | x | x | -0.7 | -3 | -4.4% | x
COc1ccc(CN(CCCN2CCOCC2)C(=O)Nc2ccccc2)cc1OC | -1.2 | 6% | 1.5 | -30 | -1.2% | -32%[inhibitor]
CN1c2ccccc2-c2nc(SCC(=O)Nc3ccccc3)ncc2S1(=O)=O | x | x | 1.4 | 10 | 4.0% | x
COc1ccc(OCCNc2c([N+](=O)[O-])c(=O)oc3ccccc23)cc1 | 0.1 | -16% | 2.4 | 1 | 0.0% | 5%
CCN(CC)C(=O)COc1coc(CN2CCN(c3ccc(F)cc3)CC2)cc1=O | x | 4% | -0.6 | 11 | x | 16%
Cc1cc2ncn(N)c2cc1C | 1.9 | 6% | -0.3 | 19 | -1.4% | 7%
Cn1c(SCC(=O)N/N=C/C=C/c2ccccc2[N+](=O)[O-])nc2ccccc21 | -1.7 | -11% | 1.6 | -10 | 1.6% | -38%[inhibitor]
CN(c1ccc(C(=O)N2CCCCCC2)cc1)S(=O)(=O)c1ccccc1 | x | -18% | 0.5 | 5 | 1.8% | -37%
COc1ccccc1/C=N/NC(=O)C(C)Cn1cnc2ccccc21 (centres undefined) | 3.6 | 0% | 0.7 | 6 | -4.7% | 2%
NC(=O)[C@@H]1CCCN1Cc1nc(Cc2ccccc2Cl)no1 | -2.5 | 7% | 0.2 | -25 | 0.3% | 0%
CN1CCN(CC(=O)NC2CCCCC2)CC1 | 2.1 | -10% | 0.3 | 23 | 0.2% | -22%
COCCNc1nc(Oc2ccc(NC(C)=O)cc2)c2sc(-c3ccccc3)cc2n1 | x | x | 1.2 | 14 | 32µM* | x
O=c1c(C(c2ccccc2)c2c(O)nc3n(c2=O)CCCS3)c(O)nc2n1CCCS2 | 23 | 0% | 0.0 | 30 | -1.4% | 1%
CN(C)c1ccc(CNC(=O)c2ccc(Cn3c(=O)c4cccn4c4cccnc43)cc2)cc1 | x | x | -1.1 | -2 | -21% | x
O=C(CCc1nnc(CCCCc2ccccc2)o1)NCCc1cccnc1 | 0.6 | -34% | -0.6 | -11 | x | 5%[15.4 µM]
COc1ccc(-c2nc3cnccn3c2NC(C)(C)CC(C)(C)C)cc1O | -1.3 | u | 0.0 | 1 | -5.2% | -11%[15.4 µM]
O=C1CC(SC(=S)C2CCCC2=O)C(=O)N1 (centres undefined) | x | x | -0.4 | -24 | -4.5% | -3%
Brc1ccc2nc(-c3ccccc3)c(Cc3ccccc3)n2c1 | x | x | 0.7 | -6 | -10.0% | x
CCOC(=O)c1[nH]c2ccc(F)cc2c1N=C(C)N(CC)CC | 3.8 | 5% | 15 | -12 | -1.4% | u
COc1ccccc1NC(=O)C1=C(C)N(c2ccccc2)C(=S)NC1c1cccc(C(F)(F)F)c1 (centres undefined) | 6.8 | -12% | -0.4 | 8 | -0.9% | -43%[inhibitor]
O=C(NCCCNC(=O)c1ccc(Cl)cc1Cl)c1ccco1 | -5.4 | 6% | 1.3 | 8 | x | 6%
Cc1ccc(S(=O)(=O)NCCC(=O)NCC(c2cccs2)N2CCOCC2)cc1 (centres undefined) | x | 5% | -1.0 | -6 | -1.9% | 0%
O=C(Cc1ccccc1)NCC1COc2ccccc2O1 (centres undefined) | x | 3% | 0.3 | 4 | 0.6% | -32%[inhibitor]
CC(NC(=O)c1sc2cc([N+](=O)[O-])ccc2c1Cl)C(C)(C)C (centres undefined) | 4.0 | -5% | 0.7 | 59 | 0.7% | 20%
Cc1ccccc1CSc1nnc(-c2ccco2)n1Cc1ccco1 | 4.4 | -13% | -0.4 | 12 | 0.3% | -10%
Cc1ccc(-c2nc3ccc(Cl)cn3c2CC(C)(C)C)cc1 | x | x | -0.1 | 10 | -8.6% | 0%
Cc1ccc(S(=O)(=O)N2CCN(S(=O)(=O)N3CCC(C)CC3)CC2)cc1C | -0.1 | 7% | 0.6 | -8 | x | -4%[15.4 µM]
COc1ccc(C(=O)Nc2ccc(C)c(S(=O)(=O)N3CCOCC3)c2)cc1S(=O)(=O)N1CCCC1 | x | -13% | 0.3 | 40 | -0.6% | 6%
COc1ccc(Br)cc1CN1CCN(Cc2c[nH]c3ccccc23)CC1 | -3.1 | 3% | 0.4 | -10 | 0.1% | 3%[15.4 µM]
Fc1ccc(C(c2nnc(-c3ccccc3)o2)N2CCN(c3cccc(Cl)c3)CC2)cc1 (centres undefined) | x | x | 0.3 | -6 | 1.4% | x
CCC(=O)Nc1ccc(C(=O)COC(=O)C(CCSC)NC(=O)COc2ccccc2)cc1 (centres undefined) | x | -11% | -0.1 | -5 | -2.9% | 14%
CCOc1ccccc1Nc1cc2n(c(=O)n1)CCc1cc(OC)c(OC)cc1-2 | -9.2 | 9% | 3.6 | -15 | x | 4%
Cc1ccccc1CC(=O)Nc1cc(C(C)(C)C)on1 | -0.2 | 2% | -0.6 | 5 | x | 3%
CSc1nsc(SCC(=O)NCc2ccc(C)cc2)n1 | 0.3 | 1% | 0.9 | 12 | 0.7% | -24%[15.4 µM]
Cc1cccc(-n2c(CCn3nc(C)c([N+](=O)[O-])c3C)n[nH]c2=S)c1 | 1.1 | 3% | -0.2 | 3 | 0.4% | -24%
CCOC(=O)Nc1ccc2nc(N3CCCCCC3)sc2c1 | 5.9 | 10% | 2.1 | -9 | -0.4% | u
COc1nc(C)ccc1-c1noc(-c2cccs2)n1 | -1.4 | 0% | 1.8 | 44 | x | 15%[15.4 µM]
CC(C)=NN1C(c2nonc2N)=NOC1(C)C | 0.2 | 14% | 0.2 | -13 | 0.7% | -6%[15.4 µM]
COc1ccc(NC(=O)c2ccco2)cc1NC(=O)COc1ccccc1Cl | x | x | 0.1 | 4 | 4.3% | x
O=C(c1ccc2nc[nH]c2c1)N1CCN(c2cccc(C(F)(F)F)c2)CC1 | x | -3% | 0.2 | 3 | -2.0% | -3%[15.4 µM]
C=CCN1C(=O)C(C)S/C1=N\S(=O)(=O)c1ccc(Cl)cc1 (centres undefined) | 5.0 | 5% | 0.6 | 6 | -2.3% | 6%

Assay outcomes (PubChem BioAssay)
